# High-throughput results: PubChem BioAssay, Broad Institute
# Hedgehog cleavage – Drosophila hedgehog isoform A inhibitors, primary screen, biochemical, plate reader, single concentration (AID 588832). Biochemical plate reader assay, Hedgehog inhibition; stronger effect = higher value. inhibition, % at 30.3 µM. 8,000 tested, under 10 active; in the data active = inhibition from about 57%;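 note: 0% = neutral control wells and 100% = positive control wells; cholesterol-driven self-cleavage of fly hedgehog protein by fluorescence polarization; read one hour after cholesterol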
# An asterisk follows results filed as active.
SMILES,Hedgehog cleavage
Cn1cccc1Cc1nnc(SCC(=O)NC2CCCC2)n1CCc1ccccc1,13
CCOc1ccc(CC(=O)NCc2cn3c(C)csc3n2)cc1,11
CN(C1CCCCC1)S(=O)(=O)c1ccc2c(c1)c(=O)c(C(=O)NCCCN1CCCC1)cn2C,5
CC(C)(O)CCC(C)(C)O,11
CCn1c(=NC(=O)c2ccco2)sc2cccc(F)c21,7
CSC1=NCCN1C(=O)c1ccc(S(=O)(=O)N2CCOCC2)cc1,2
COC(=O)COc1cccc2c(=O)n(CC(=O)Nc3ccc4c(c3)OCCO4)ccc12,5
C=CC[C@]12C=C(OC)C(=O)C=C1O[C@@H](c1ccc3c(c1)OCO3)[C@H]2C,2
COc1ccc(-c2nc(CS(=O)(=O)CC(=O)Nc3ccc(Cl)cc3)c(C)o2)cc1,5
Cc1ccc2c(c1)N(C(=O)CCC(=O)N1CCC(C(N)=O)CC1)CCO2,10
COc1cc2c(cc1OC)CN(C(=O)C1CCCN1S(=O)(=O)c1ccc(C)cc1)CC2 (stereo not drawn),5
COc1c(CC=C(C)C)cc(C2CC(=O)c3c(O)cc(O)cc3O2)cc1CC=C(C)C (stereo not drawn),3
COc1ccc(Cl)cc1NC(=O)C1CSC(c2ccncc2)=N1 (stereo not drawn),9
O=C(O)CN1C(=O)COc2cc(S(=O)(=O)N3CCCC3)ccc21,12
CCn1c(=O)c2cc(C(=O)Nc3cc(C)on3)sc2c2ccccc21,4
Cc1cc(C)c(S(=O)(=O)N2CCN(CCO)CC2)c(C)c1,11
CN1CCSc2ccc(C(=O)NCc3cccc(F)c3)cc21,0
CCc1ccc(NC(=O)C2=CC(c3ccc(OC)c(OC)c3)=NS(=O)(=O)N2C)cc1,5
COc1cc(C(=O)NCC(c2cccnc2)N2CCN(c3ccccc3)CC2)cc(OC)c1OC (stereo not drawn),4
Cc1cccc(NC(=S)NCc2ccc3[nH]c4c(c3c2)CCCC4)c1,19

# Some of these compounds in order of their number in Hedgehog cleavage, ascending:
SMILES,Hedgehog cleavage
CN1CCSc2ccc(C(=O)NCc3cccc(F)c3)cc21,0
CSC1=NCCN1C(=O)c1ccc(S(=O)(=O)N2CCOCC2)cc1,2
CCn1c(=NC(=O)c2ccco2)sc2cccc(F)c21,7
COc1ccc(Cl)cc1NC(=O)C1CSC(c2ccncc2)=N1 (stereo not drawn),9
CC(C)(O)CCC(C)(C)O,11

# The main list resumes with the 7 entries that preceded the break.
SMILES,Hedgehog cleavage
O=C(O)CN1C(=O)COc2cc(S(=O)(=O)N3CCCC3)ccc21,12
CCn1c(=O)c2cc(C(=O)Nc3cc(C)on3)sc2c2ccccc21,4
Cc1cc(C)c(S(=O)(=O)N2CCN(CCO)CC2)c(C)c1,11
CN1CCSc2ccc(C(=O)NCc3cccc(F)c3)cc21,0
CCc1ccc(NC(=O)C2=CC(c3ccc(OC)c(OC)c3)=NS(=O)(=O)N2C)cc1,5
COc1cc(C(=O)NCC(c2cccnc2)N2CCN(c3ccccc3)CC2)cc(OC)c1OC (stereo not drawn),4
Cc1cccc(NC(=S)NCc2ccc3[nH]c4c(c3c2)CCCC4)c1,19
CCC(C)[C@H](NC(=O)N1c2ccccc2NC(=O)[C@@H]1C(C)C)C(=O)N[C@@H](Cc1ccccc1)C(=O)O (stereo partly drawn),5
Nc1ccn([C@H]2CS[C@@H](CO)O2)c(=O)n1,2
COC(=O)CCC(C)C1CCC2C3CCC4CC(O)CCC4(C)C3CC(O)C12C (stereo not drawn),5
CCN(CCCNC(=O)CC1Oc2ccc(C)cc2NC1=O)Cc1ccccc1 (stereo not drawn),15
O=C(N[C@H](CO)[C@H](O)c1ccc([N+](=O)[O-])cc1)C(Cl)Cl,8
CCC(C)[C@H](NC(=O)[C@@H]1Cc2ccccc2CN1)C(=O)NCc1ccc(OC)cc1 (stereo partly drawn),5
CC(=O)Nc1cccc(C)c1,9
O=C1C=C(O)c2c(O)cc(O)c(O)c2C1=O,93*
Cc1ccc(CNC(=O)c2cc3c(=O)n(C)c4ccccc4c3n2C)o1,12
Cc1ccc(C)c(N2CCN(C(=O)c3cc4ccccc4oc3=O)CC2)c1,10
CN1C(=O)CSc2ccc(C(=O)O)cc21,6
COc1ccc(OC)c(-n2c(SCC(=O)N3CCc4ccccc43)nc3c(c2=O)SCC3)c1,8
CC1CCN(C(=O)CSc2nnc(Cc3cc(=O)[nH]c(=O)[nH]3)n2-c2ccc(Cl)cc2)CC1,11
Cn1c(NNC(=O)c2cccc3ccccc23)cc(=O)n(C)c1=O,0
COc1cc2ccc(=O)oc2c(O)c1O,7
Cn1c(=O)c2c(SCC(N)=O)nc(CC(C)(C)C)nc2n(C)c1=O,5
CC1=C(C(=O)OC2CCCCC2)C(c2ccco2)n2ncnc2N1 (stereo not drawn),11
COC(=O)C1C(=O)c2c([nH]c(C(=O)OC3CCCCCC3)c2C)CC1C (stereo not drawn),25
O=C(Cn1ncc2c(=O)oc3ccccc3c21)NCCN1CCN(c2ccccc2F)CC1,5
CC1CCCC(N2CCN(C(=O)c3ccc(F)cc3)CC2)C1 (stereo not drawn),17

# Next part (two carried over from the part before).
SMILES,Hedgehog cleavage
O=C(Cn1ncc2c(=O)oc3ccccc3c21)NCCN1CCN(c2ccccc2F)CC1,5
CC1CCCC(N2CCN(C(=O)c3ccc(F)cc3)CC2)C1 (stereo not drawn),17
O=C(CSc1nnc(Cn2c(=O)sc3ccccc32)n1-c1ccccc1)Nc1nccs1,20
COc1ccc(-c2nc(CSCC(=O)N3CCN(C(=O)c4ccco4)CC3)c(C)o2)cc1OC,5
CSc1nc(-c2ccco2)nn1C(=O)c1ccco1,17
CCOC(=O)N1CCC(NC(=O)COc2cc(=O)n(C)c3ccccc23)CC1,11
Cc1ccc(S(=O)(=O)NCc2nc3nc(C)cc(C)n3n2)c(C)c1,6
COc1ccc(-c2cc3c(=O)n(CC(=O)NCc4ccc(F)cc4)ncn3n2)cc1,5
Cc1ccc2c(c1)NC(=O)C(CC(=O)NCCCN1CCN(c3cc(C)ccc3C)CC1)O2 (stereo not drawn),11
O=C(O)c1cc(O)c2c(c1)C(=O)c1cc(O)cc(O)c1C2=O,15
Cc1ccc2c(c1)C(SCC(=O)NCCc1ccccc1)CC1(CCCC1)O2 (stereo not drawn),9
O=C(CC1Oc2ccc(Cl)cc2NC1=O)NC1CCCCCC1 (stereo not drawn),20
O=C(Cn1cnc([N+](=O)[O-])n1)NCCO,17
O=C(Nc1cccc(F)c1)C1CCN(C(=O)N2CCOc3ccccc32)CC1,2
CC1=CC(C/C(C)=C/COc2ccc3ccc(=O)oc3c2)OC1=O (stereo not drawn),0
Cc1ccc(Cl)cc1NC(=O)c1cc(S(=O)(=O)N2CCOCC2)cn1C,-4
CCC(C(=O)NC1CCCC1)n1c(SCc2cccc(C)c2)nc2ccncc21 (stereo not drawn),2
CCCc1cc(=O)oc2cc(OC(C)C(=O)NCC3CCC(C(=O)O)CC3)ccc12 (stereo not drawn),9
Cc1ccc(NS(=O)(=O)c2ccc3c(c2)NC(=O)C(C)C(=O)N3)cc1C (stereo not drawn),5
CSC1=NCCN1C(=O)c1cccs1,4
CC(Oc1ccc2c(-c3ccccc3)cc(=O)oc2c1)C(=O)NCCCn1ccnc1 (stereo not drawn),2
Cc1ccccc1-n1c(Cn2c(=O)sc3ccccc32)nnc1SCC(=O)N1CCOCC1,5
CCOC(=O)c1c(NC(=O)CSc2nnc(-c3c[nH]c4ccccc34)n2CC)sc2c1CCCC2,4
COc1ccc(C2CC(c3ccc(OC)cc3)n3nc(N)nc3N2)cc1 (stereo not drawn),8
COCCNC(=O)CN1CCOc2ccccc21,2
O=C(NCc1ccccc1)c1ccccc1,-2
CC(SC1=NCCS1)C(=O)Nc1nnc(-c2ccc(Br)cc2)s1 (stereo not drawn),1
O=C(CSC1=NC2(CCCCCC2)N=C1c1ccccc1)Nc1ccc2c(c1)OCCO2,12
COc1ccc(N(CC(=O)NC2CCCCCCC2)S(=O)(=O)c2c(C)nn(C)c2C)cc1,5
CCCCCCn1c(CN2CCCCC2CC)nc2c1c(=O)n(C)c(=O)n2C (stereo not drawn),7
CCCCSc1nc(C)nc2c1c(=O)n(C)c(=O)n2C,8
O=C1CC(=O)Nc2cc(S(=O)(=O)N3CCOc4ccc(Cl)cc43)ccc2N1,25
CCOC(=O)C(CC)n1nc(C)n2c(cc3sccc32)c1=O (stereo not drawn),8
CC(=O)NC(CCS(C)(=O)=O)C(=O)Nc1cccc(C)c1 (stereo not drawn),9
C[C@@H](C(=O)NCc1ccco1)N1C(=O)N2CCc3c([nH]c4ccccc34)[C@@]2(C)C1=O,7
CC1(C)CCCC2(C)C1CCC1(C)OC(=O)CCC12 (stereo not drawn),9
N#CCCN1CCN(S(=O)(=O)c2ccc(S(=O)(=O)NC3CC3)cc2)CC1,17
CC(C)[C@H](NC(=O)N1c2ccccc2NC(=O)[C@@H]1C(C)C)C(=O)N[C@@H](Cc1c[nH]c2ccccc12)C(=O)O,0
Cc1nc2sc(C(c3cccs3)N3CCN(c4cccc(Cl)c4)CC3)c(O)n2n1 (stereo not drawn),33
CCOc1ccc(-n2nnc3c(=O)n(CC(=O)c4ccccc4)cnc32)cc1,13
CC(=O)Nc1cccc(N)c1,7
Cc1cc(=O)oc2cc(OCC(=O)NCC3CCC(C(=O)O)CC3)ccc12 (stereo not drawn),3
CC(C)CCn1c(CN2CCOCC2)nc2c1c(=O)n(C)c(=O)n2C,4
O=C(O)c1cc2ccccc2[nH]1,8
Cn1cc(SCC(=O)Nc2ccc3c(c2)OCCO3)c2ccccc21,-1
COc1ccc(C2N(c3cc(Cl)ccc3OC)C(=O)C3CCCN32)cc1OC (stereo not drawn),0
COc1cc(NC(=O)c2ccc(NC3=NC4CS(=O)(=O)CC4S3)cc2)cc(OC)c1 (stereo not drawn),11
O=C(NCc1ccc(Cl)cc1)C(=O)NCC1OCCN1S(=O)(=O)c1cccs1 (stereo not drawn),10
Cc1nc(CNS(=O)(=O)c2ccc3ccccc3c2)cs1,5
COc1ccc(-c2noc(N3CCC(C(=O)Nc4ccccc4F)CC3)n2)cc1,13
Cc1ccc(Cl)cc1N1CCN(C(=O)C(C)n2ncn3cccc3c2=O)CC1 (stereo not drawn),-2
NC(=O)C1(N2CCCCC2)CCN(S(=O)(=O)c2cc(Cl)ccc2Cl)CC1,5
COC(=O)CC1Oc2ccc(C)cc2NC1=O (stereo not drawn),21
CCOc1ccccc1NC(=O)CSc1nnc(Cn2c(=O)sc3ccccc32)n1C,11
Cc1nc(SCC(=O)OCc2ccccc2)c2c(=O)n(C)c(=O)n(C)c2n1,5
O=C1c2oc3ccc(F)cc3c(=O)c2C(c2cccc(O)c2)N1CCCN1CCOCC1 (stereo not drawn),0
O=C(Cn1nc(Cc2cccnc2)c2ccccc2c1=O)NCc1ccc2c(c1)OCO2,7
Oc1c(C(c2cccs2)N2CCN(c3ccccc3)CC2)sc2ncnn12 (stereo not drawn),3
Cc1ccc(C2CC(c3ccccc3C)n3nc(N)nc3N2)cc1 (stereo not drawn),6
COc1ccccc1CCNC(=O)C(=O)NCC1OCCN1S(=O)(=O)c1ccccc1 (stereo not drawn),4
CCOC(=O)C1CCCN(S(=O)(=O)c2cc3[nH]c(=O)c(=O)[nH]c3cc2C)C1 (stereo not drawn),15
CCN(c1ccccc1)S(=O)(=O)c1cc2c(cc1C)n(C)c(=O)c(=O)n2C,20

# No new results follow: 2 of the compounds above.
SMILES,Hedgehog cleavage
CCOc1ccccc1NC(=O)CSc1nnc(Cn2c(=O)sc3ccccc32)n1C,11
Cc1nc(SCC(=O)OCc2ccccc2)c2c(=O)n(C)c(=O)n(C)c2n1,5

# Remaining list, next part
SMILES,Hedgehog cleavage
CCOC(=O)N1CCN(C(=O)CSc2nnc(Cc3ccccc3)o2)CC1,11
O=C(c1cc(-c2ccc(F)cc2)no1)N1CCN(Cc2ccc3c(c2)OCO3)CC1,-2
O=C(CCn1c(=O)oc2ccccc21)NCCCN1CCCC1=O,0
O=C(CCc1nc2ccccc2[nH]1)NCc1ccc2c(c1)OCO2,5
CCOC(=O)C(C)Sc1nc2c(c(=O)[nH]c(=O)n2C)n1Cc1ccc(Cl)cc1 (stereo not drawn),19
CCCCc1cc(=O)oc2cc(C)cc(OCC(=O)N3CCC(C(N)=O)CC3)c12,-2
COc1ccc(N(CC(=O)Nc2ccc(C)c(C)c2)C2=NC3CS(=O)(=O)CC3S2)cc1 (stereo not drawn),9
Cc1cc2cc(CNC(=S)Nc3ccc(OC(F)F)cc3)ccc2[nH]1,10
CCCCCCSc1cc(C)nc2ncnn12,5
CCC(=O)c1ccc(O)c(OC)c1,5
O=C(C(Cc1ccccc1)n1cccc1)N1CCc2ccccc21 (stereo not drawn),-2
NC(=O)c1c(NC(=O)c2c(F)cccc2F)sc2c1CCN(Cc1ccccc1)C2,0
COc1cc(/C=C/c2ccc(O)cc2)cc(OC)c1,7
COc1ccc(C(=O)NCC(=O)NC2=NCCS2)cc1,6
COc1ccc(-c2nnc(SCC(=O)N3CCCCC3)o2)cc1OC,20
Cc1cccc(NC(=O)CSc2nc3ccccc3nc2N2CCCCC2)c1,3
Cn1c(Cn2c(=O)sc3ccccc32)nnc1SCC(=O)N1CCCC1,12
Cn1c(C(=O)NCCCN2CCc3ccccc3C2)cc2c(=O)n(C)c3ccccc3c21,0
CC1Cc2nc(SCC(=O)N3CCCC3)n(C)c(=O)c2S1 (stereo not drawn),4
CCOCCCNC(=O)CCCn1nc(C)n2c(cc3sccc32)c1=O,-4
COc1ccc(-c2cc(=O)oc3cc(OCC(=O)NCC4CCC(C(=O)O)CC4)ccc23)cc1 (stereo not drawn),-53
COc1ccccc1CNC(=O)[C@H](Cc1c[nH]c2ccccc12)NC(=O)[C@@H]1Cc2ccccc2CN1,4

# This is a subset; count on the stated rates, not on these rows.
